Screens from PubChem.
PINK1 expr mod: PINK1 expression modulation; PINK1 immunofluorescence, high-content cytometry, 24 h; Potency, µM (series often up to 76.6 µM), inactives show at the top dose activation (PINK1 increase), hits mostly activators; 410,000 tested, 0.2% active; AID 624263; active = well fitted activation curve with a large enough effect; inconclusive = small, poorly fitted or top-dose-only effect; inactive = flat fitted curve, though single readings scatter; cell line not stated here;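 further: potency means the concentration at half of the fitted maximal effect; % of control where 0% means no effect; nearly all actives have a fitted effect of over 65% in size; a mitochondrial uncoupler was the plate control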
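Stable cell line treated 24 h with compounds at 5 concentrations (CCCP controls), then fixed and immunostained for PINK1 plus nuclear and cell stains; PINK1 immunofluorescence quantified by laser-scanning microplate cytometry.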
CtBP-E1A inh: CtBP/E1A binding inhibition. AID 651724. 340,000 tested, 0.49% active. AlphaScreen GST-E1A/His-CtBP binding, 1536-well; hits give low values; control for the full effect not named in the record. activity change, % (no concentration beside the values); in the data active means activity change below about -65%; inconclusive means about -30% to -65%; inactive means above about -30%; further: on the % scale 0 is the no-effect control and ±100 the full control effect; compound concentration not given in the record
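Homogeneous bead-based format: GST-tagged E1A captured on glutathione donor beads, His-tagged CtBP on nickel acceptor beads; compounds precede bead addition by 2 h at 37 °C.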
Six1-Eya2 blk: Six1/Eya2 interaction inhibition; 360,000 tested, 0.56% active; AlphaScreen GST-Six1/His-Eya2 binding, biochemical; hits give low values; control for the full effect not named in the record; activity change, % (no concentration beside the values); Q15475+O00167; in the data active = activity change below about -65%; inconclusive = about -30% to -65%; inactive = above about -30%; further: on the % scale 0 is the no-effect control and ±100 the full control effect; compound concentration not given in the record
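Homogeneous AlphaScreen proximity assay pairing GST-Six1 with His-tagged Eya2 (added as 5X mix: 250 nM and 500 nM) in 50 mM Tris pH 8.0, 300 mM NaCl, 1 mM TCEP. Glutathione donor and nickel acceptor beads; 1 h, 37 °C, dark.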
TRPML1 inh: blocks the human TRPML1 channel; Q9GZU1; TRPML1-inducible cells, Ca2+ dye fluorescence, FDSS; hits give low values; inhibition of EC80 agonist-evoked calcium signal; activity change, negative = inhibition, % (concentration not given with the values); 390,000 tested, 0.02% active; in the data active means activity change below about -50%; inconclusive means about -30% to -50%; inactive means above about -30%;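 further: stimulus is agonist 54-4 at its EC80 concentration; on the % scale 0 is the no-effect control and ±100 the full control effect; compound concentration not given in the record; the text of the record puts the active cut at -80%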
Target sequence (Q9GZU1 whole entry, looked up): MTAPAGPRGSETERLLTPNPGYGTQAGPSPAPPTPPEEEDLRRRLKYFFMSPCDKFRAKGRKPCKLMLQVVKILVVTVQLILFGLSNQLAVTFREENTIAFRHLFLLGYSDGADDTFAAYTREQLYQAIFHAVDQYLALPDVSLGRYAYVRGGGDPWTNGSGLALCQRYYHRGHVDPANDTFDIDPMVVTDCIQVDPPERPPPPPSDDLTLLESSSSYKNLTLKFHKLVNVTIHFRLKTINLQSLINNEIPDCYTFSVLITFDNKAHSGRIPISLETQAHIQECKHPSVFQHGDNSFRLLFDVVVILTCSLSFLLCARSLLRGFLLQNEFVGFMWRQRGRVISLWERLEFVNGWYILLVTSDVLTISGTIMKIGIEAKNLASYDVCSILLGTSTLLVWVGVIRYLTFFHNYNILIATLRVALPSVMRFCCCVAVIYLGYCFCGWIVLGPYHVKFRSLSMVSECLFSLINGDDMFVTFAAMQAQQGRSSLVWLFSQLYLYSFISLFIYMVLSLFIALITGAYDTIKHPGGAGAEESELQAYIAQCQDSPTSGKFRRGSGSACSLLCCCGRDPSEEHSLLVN
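Calcium fluorescence in TRPML1-DL cells induced overnight with Tet: a 110 s read after compound pin addition, then a 110 s antagonist read after challenge with 54-4 at 4 uM final (EC80).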
TRPML1 ag: activates the human TRPML1 channel; Q9GZU1; 410,000 tested, 0.12% active; TRPML1-expressing cells, Ca2+ dye fluorescence, FDSS; host cell line not named in the record; reference of the full effect not given here; activation, % (test concentration not listed); in the data active = activation above about 50%; inconclusive = about 30% to 50%; inactive = below about 30%; further: 0% is about no effect; the text of the record puts the active cut at 80%
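In this qHTS format, compounds were pin-transferred onto Ca8-dye-loaded TRPML1-DL cells induced with Tet overnight, and intracellular Ca2+ fluorescence was recorded kinetically for 110 s after a 10 s baseline. A subsequent 4uM final 54-4 (EC80) addition followed by a second 110 s read served as the antagonist phase.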
D2 agonist: human D2 receptor agonism in beta-arrestin assay; DiscoveRx PathHunter D2 beta-arrestin, luminescence, 90 min; 100% = 57 uM dopamine signal; activation, % (no concentration beside the values); 360,000 tested, 0.084% active; in the data active = activation above about 40%; inconclusive = about 15% to 40%; inactive = below about 15%; further: compound concentration not given in the record; the text of the record calls up to 30% inactive
Target sequence (P14416 whole entry, looked up): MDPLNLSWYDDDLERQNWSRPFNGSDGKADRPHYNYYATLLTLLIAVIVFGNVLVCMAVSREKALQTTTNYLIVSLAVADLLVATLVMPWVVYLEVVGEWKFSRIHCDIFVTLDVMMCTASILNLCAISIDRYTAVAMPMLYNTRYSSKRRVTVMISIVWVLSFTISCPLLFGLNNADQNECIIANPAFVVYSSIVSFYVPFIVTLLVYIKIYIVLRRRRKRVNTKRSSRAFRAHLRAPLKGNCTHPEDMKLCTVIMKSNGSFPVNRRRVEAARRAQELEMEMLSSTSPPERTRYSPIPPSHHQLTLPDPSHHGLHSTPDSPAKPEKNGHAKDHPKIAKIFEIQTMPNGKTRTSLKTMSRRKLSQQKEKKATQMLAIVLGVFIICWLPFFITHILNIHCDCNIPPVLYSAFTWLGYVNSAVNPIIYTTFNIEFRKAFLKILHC
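DiscoveRx PathHunter D2 beta-arrestin cells (2,100/well) attached overnight, then compound-stimulated 90 min at 37 C in HBSS/10 mM HEPES/0.1% Tween-20 buffer; beta-galactosidase complementation read by luminescence after 1 h at ambient temperature. Dopamine 57 uM final (EC100) as control.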
The depositor's hits bear a star; ? = inconclusive; / = not tested or not shown; [ ] = remark or other dose.

SMILES | TRPML1 inh | Six1-Eya2 blk | PINK1 expr mod | D2 agonist | TRPML1 ag | CtBP-E1A inh
CCOC(=O)C1=C(COC(=O)CCOc2cc(C)ccc2C)NC(=O)NC1C (stereo unspecified) | 2 | -2 | -1.2% | -0.8 | -2.0 | /
Cc1ccccc1OCC(=O)OCC(=O)NC12CC3CC(CC(C3)C1)C2 | 1 | 12 | 0.1% | -2.2 | 0.1 | 1
COc1ccc(S(=O)(=O)NCCSCc2ccco2)cc1 | -10 | -1 | -0.2% | -0.1 | 1.0 | -4
Cc1cc(C)c2sc(NC(=O)c3ccc(S(=O)(=O)N4CCOCC4)cc3)nc2c1 | -5 | / | -1.2% | / | 1.8 | /
CCN(c1ccccc1C)S(=O)(=O)c1cc2c3c(c1)CCN3C(=O)CC2 | 11 | -2 | -0.7% | 1.1 | -0.7 | 4
O=C(NC1=NCCS1)C1COc2ccccc2O1 (stereo unspecified) | -4 | 1 | -0.5% | -5.5 | 0.3 | 6
c1ccc2c(c1)nc1n2CCC1 | 5 | 10 | -0.2% | 0.6 | 0.6 | -13
CC1CCC(C(C)C)C(OC(=O)COC(=O)c2ccc(N)cc2)C1 (stereo unspecified) | 10 | -3 | 2.4% | -5.1 | 0.7 | 1
N=c1n(CC(=O)c2cccc([N+](=O)[O-])c2)c2ccccc2n1Cc1ccccc1 | -6 | 10 | -0.1% | 1.6 | -0.1 | 10
Cc1ccc2cccc(N)c2n1 | 3 | 15 | 0.5% | -16 | -0.3 | -10
Clc1ccc(CSc2nc3ncccc3[nH]2)cc1 | -7 | / | -1.2% | / | 1.1 | /
COc1cccc(NC(=O)CSc2nnnn2C(C)C)c1 | -8 | 5 | 0.1% | -0.7 | -1.3 | 1
COc1cc(CNc2ccc3c(c2)ncn3C(C)C)cc(OC)c1OC | -8 | / | 8.3% | / | -0.1 | /
COc1ccnc(Oc2ccc(F)cc2)c1C(=O)N/C=N/OCc1cccc(F)c1 | 8 | -14 | -0.4% | -0.1 | 1.4 | -22
CCc1c(C(=O)NNC(=S)NCC(C)C)csc1C | 0 | 5 | ? | -7.1 | -0.1 | 10
CCn1nc(C(=O)OCC(=O)N2c3ccccc3CC2C)c2ccccc2c1=O (stereo unspecified) | -17 | 4 | 2.5% | -1.7 | 1.5 | 6
COc1ccc(OCC(=O)N2CCN(C(=O)c3ccc([N+](=O)[O-])cc3)CC2)cc1 | -14 | -1 | 0.7% | 5.0 | 0.0 | 0
O=C1OC(c2ccccc2)(c2ccccc2)c2ccccc21 | 32 | -4 | 4.3% | -2.2 | 6.5 | 0
C/C(=N\NC(=O)COc1ccc(C(C)(C)C)cc1)c1ccc(OC(F)F)cc1 | 15 | 0 | 13% | -1.2 | 0.0 | 7
O=C(Nc1nnc(SCC(=O)N2CCOCC2)s1)c1ccccc1Cl | 9 | 2 | -0.7%[38.3 µM] | -2.0 | 0.9 | 3
O=C(Nc1ccc(Cl)cc1)N1CCN(C(=O)C2CCCO2)CC1 (stereo unspecified) | -2 | 3 | 0.1% | 3.6 | -0.1 | 4
Cc1ccc(OCC(O)Cn2c3ccccc3c3ccccc32)cc1 (stereo unspecified) | 3 | 3 | / | -2.5 | 1.1 | 7
Cc1csc(=O)n1CCC(=O)NCc1ccc(F)cc1 | 37 | 8 | 0.4% | -3.7 | -0.7 | 0
COc1cccc(C(=O)NNC(=O)C(=O)Nc2cccc(Cl)c2C)c1 | -23 | -10 | -0.1% | -2.4 | 1.3 | -1
Cc1nnc(SCCCOc2ccccc2)nc1C | 17 | 10 | 0.4% | -3.4 | 1.0 | /
O=C(CCC(=O)c1cccs1)NCc1cccnc1 | 23 | 4 | 0.6% | -0.5 | -0.4 | -6
COc1ccccc1CNC(=O)c1sc2nc3n(c(=O)c2c1C)CCC3 | -11 | / | 2.2% | / | -0.1 | /
CCOC(=O)c1ccc(NS(=O)(=O)c2cc(-c3nnnn3CC)ccc2OC)cc1 | -13 | -2 | -2.8%[38.3 µM] | 0.4 | -0.6 | -2
CC(=O)c1cccc(NC(=S)N2CCCC2)c1 | -13 | -2 | -1.4% | -3.0 | -0.5 | -1
Cc1cc(C)cc(OCC(=O)N/N=C\c2cn(C)nc2C)c1 | -17 | 0 | 3.8% | -1.1 | -0.6 | -2

Overlap with the part before: 3 compounds; new compounds follow.
SMILES | TRPML1 inh | Six1-Eya2 blk | PINK1 expr mod | D2 agonist | TRPML1 ag | CtBP-E1A inh
CCOC(=O)c1ccc(NS(=O)(=O)c2cc(-c3nnnn3CC)ccc2OC)cc1 | -13 | -2 | -2.8%[38.3 µM] | 0.4 | -0.6 | -2
CC(=O)c1cccc(NC(=S)N2CCCC2)c1 | -13 | -2 | -1.4% | -3.0 | -0.5 | -1
Cc1cc(C)cc(OCC(=O)N/N=C\c2cn(C)nc2C)c1 | -17 | 0 | 3.8% | -1.1 | -0.6 | -2
COc1ccc(-c2noc(-c3ccc(C)cc3)n2)cc1 | 11 | 22 | 2.9% | -1.8 | 1.2 | 11
CCOC(=O)CSc1nnc(-c2cccnc2)o1 | 27 | 10 | -0.9% | -2.5 | -0.5 | 3
CCN(Cc1nc2cc(Cl)ccc2c(=O)[nH]1)C(=O)c1cc(C2CC2)nn1-c1ccccc1 | -7 | -17 | 16% | -2.0 | 0.6 | -3
COc1ccccc1OCCn1c(NC(=O)c2ccccc2Cl)nc2ccccc21 | 13 | / | 11% | / | 2.3 | /
Cc1cc2nn(-c3cccc4ccccc34)nc2cc1N | 1 | -1 | 11% | 6.0 | 0.0 | 2
Cc1cccc(NC(=O)c2cc(C)nc3ccccc23)c1 | 2 | 0 | -2.3% | -3.3 | 1.3 | -6
CCCCNc1cc(N2CCN(C3CCCCC3)CC2)c2noc3c2c1C(=O)c1ccccc1-3 | 5 | / | 0.1% | / | -0.7 | /
C/C(=N\NC(=O)c1cccc(N/N=C(\C)c2ccc([N+](=O)[O-])cc2)c1)c1ccc([N+](=O)[O-])cc1 | 37 | -5 | -0.1% | 1.6 | 0.3 | -10
O=C(c1ccc(OC2CCN(C/C=C/c3ccc(F)cc3)CC2)cc1)N1CCCC1 | 17 | -5 | 1.4% | 1.5 | 1.4 | -15
Cc1cc(C)nc(SCc2cc(=O)c(OC(=O)c3ccco3)co2)n1 | -13 | -15 | 14% | 3.4 | 0.9 | ?
COc1ccc(CNc2ccc(C)cc2)cc1Br | 10 | -26 | -1.1% | -0.3 | -1.1 | -18
Cc1nc(C)c(C(=O)Nc2ncc([N+](=O)[O-])s2)o1 | -9 | -7 | 5.4% | -3.8 | 0.0 | -1
CCN(C(=O)Cc1cccs1)c1nnc(-c2cc(OC)c(OC)c(OC)c2)s1 | -1 | -3 | 0.2% | -0.6 | -0.9 | 0
Cc1cc(C)n2c(SCCO)nnc2n1 | -1 | 5 | -0.6% | 6.0 | 1.7 | 3
CC(=O)c1ccc(NC(=O)c2cnc(N3CCCC3)nc2C)cc1 | 5 | / | 2.2% | / | 1.5 | /
Cc1ccc(S(=O)(=O)N2CCC(C(=O)OCC(=O)N(CCC#N)c3ccc(F)cc3)CC2)cc1C | 23 | 4 | 2.9% | -4.9 | -0.1 | 0
CC(C)CN(C(=O)Cn1nnc(-c2ccc(F)cc2)n1)C1CCS(=O)(=O)C1 (stereo unspecified) | 8 | 1 | -1.7% | -6.4 | 1.4 | -1
CCCCC(=O)N/N=C(\C)CC(=O)Nc1ccccc1Br | 6 | -5 | -0.9% | -2.8 | 2.2 | 1
CC(OC(=O)Cn1ccccc1=O)C(=O)Nc1cc(Cl)cc(Cl)c1 (stereo unspecified) | 0 | -3 | -0.9% | -4.6 | 0.8 | -16
CCNC(=S)N1CCN(C(=O)c2ccco2)CC1 | 41 | -1 | -1.3%[38.3 µM] | -2.3 | 0.4 | 5

Quoted from above, five compounds:
SMILES | TRPML1 inh | Six1-Eya2 blk | PINK1 expr mod | D2 agonist | TRPML1 ag | CtBP-E1A inh
CC(=O)c1ccc(NC(=O)c2cnc(N3CCCC3)nc2C)cc1 | 5 | / | 2.2% | / | 1.5 | /
Cc1ccc(S(=O)(=O)N2CCC(C(=O)OCC(=O)N(CCC#N)c3ccc(F)cc3)CC2)cc1C | 23 | 4 | 2.9% | -4.9 | -0.1 | 0
CC(C)CN(C(=O)Cn1nnc(-c2ccc(F)cc2)n1)C1CCS(=O)(=O)C1 (stereo unspecified) | 8 | 1 | -1.7% | -6.4 | 1.4 | -1
CCCCC(=O)N/N=C(\C)CC(=O)Nc1ccccc1Br | 6 | -5 | -0.9% | -2.8 | 2.2 | 1
CC(OC(=O)Cn1ccccc1=O)C(=O)Nc1cc(Cl)cc(Cl)c1 (stereo unspecified) | 0 | -3 | -0.9% | -4.6 | 0.8 | -16

Later entries:
SMILES | TRPML1 inh | Six1-Eya2 blk | PINK1 expr mod | D2 agonist | TRPML1 ag | CtBP-E1A inh
CCC(C)NC(=O)CSc1nc2cc3c(cc2c(=O)n1Cc1ccc(C(=O)NCCc2ccc(OC)c(OC)c2)cc1)OCO3 (stereo unspecified) | 47 | / | 0.1% | / | 1.2 | /
COc1ccccc1CNCC(=O)Nc1ccc(N2CCOCC2)cc1 | -8 | 0 | 8.3% | -1.0 | 2.9 | 4
COC(=O)c1ccc(NC(=O)CCN2CCN(c3ccccc3)CC2)cc1 | -2 | -23 | -1.3% | ? | -0.4 | -25
N#C/C(=C\c1ccco1)c1nc2ccccc2s1 | -8 | -30 | 4.4% | -0.1 | 3.6 | 0
CCCCS(=O)(=O)N1CCN(S(=O)(=O)c2ccc(Cl)s2)CC1 | -16 | -10 | 6.4% | -4.3 | -0.1 | 4
Cc1oc(-c2ccccc2)cc1C(=O)Nc1cccc(/C=C\C(=O)O)c1 | 1 | -5 | -0.1% | -1.3 | -0.9 | 0
Fc1ccc(NC(=S)Nc2cc(-c3ccccc3)[nH]n2)cc1Cl | 4 | -1 | ? | -3.6 | -0.4 | -7
Cc1noc(C)c1S(=O)(=O)Nc1ccccc1N1CCOCC1 | 19 | 2 | -0.1% | -10 | -0.4 | -5
Cc1cccc(NC(=O)C23CCC(C)(/C(=N/O)C2)C3(C)C)c1 (stereo unspecified) | -1 | -2 | -1.5%[38.3 µM] | -1.1 | -0.8 | 4
Cc1ccc(-n2nc(C(=O)N3CCCCC3C)c(=O)n(C)c2=O)cc1 (stereo unspecified) | 8 | / | -0.2% | / | -0.5 | /
O=S(=O)(NC(CO)Cc1ccccc1)c1cc(Cl)ccc1F (stereo unspecified) | -9 | 6 | 1.8% | -1.2 | -1.1 | 4
NC(=O)CCS(=O)(=O)c1ccc(Cl)cc1 | -16 | -5 | -0.2% | -2.5 | -0.3 | 0
Cc1cccc(-n2c(Cc3ccccc3)nnc2SCc2nc(-c3cccs3)no2)c1 | -7 | / | 4.7% | / | 0.9 | /
